miR-21 reporter: miR-21 reporter, rising signal; AID 2288; 340,000 tested, under 10 active; HeLa miR-21 FLuc reporter, luciferase, 48 h; Potency, µM (doses to about 38.3 µM), without a hit: at the highest dose reporter change, positive = more light; active = well fitted rising curve with a large enough effect; inconclusive = small, poorly fitted or top-dose-only effect; inactive = no such curve, though single readings can be large or run the other way;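 further: % of control where 0% means no effect; miR-21 action dims this reporter so a rising signal means less miR-21 action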
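Luminescence from a firefly luciferase reporter carrying a miR-21 binding site downstream, stably expressed under a CMV promoter in HeLa cells that make miR-21 endogenously, reports miRNA modulation after 48 h compound exposure up to approximately 40uM final.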
Rango release inh: inhibitors of RanGTP-induced Rango-importin beta complex dissociation; 0.071% of 340,000 active; O95149+P62826; Potency, µM (titrated, usually from 46.1 µM), for inactives: at the top dose activity change, negative = inhibition; Biochemical FRET Rango-importin beta, RanGTP-induced dissociation; active means falling FRET ratio curve, often poorly fitted, with flat reads before Ran was added; inconclusive means other falling curves, or compound fluorescence or quenching; inactive means flat or rising ratio curve;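 further: potency means the concentration at half of the fitted maximal effect; % of control where 0% means no effect; nearly all actives have a fitted effect of over 45% in size; -100% = wells without RanGTP and RCC1; the record marks most hits as doubtful in a second field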
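Rango/importin beta premix (0.1/0.25 uM final), PBS + 1 mM DTT + 0.02% Tween-20 + 0.1% BSA; cpd 5 min RT; FRET pre-read; + RanGTP-RCC1 (0.6 uM Ran, 2 mM GTP, 0.2 uM RCC1); 45 min RT; FRET post-read, ex 430, em 486/530 nm.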
Rango-impB inh: Rango-importin beta binding inhibition | AID 540263 | Rango CFP/YFP FRET sensor + importin beta, 45 min | Q14974 | 0.031% of 340,000 active | Potency, µM (top dose mostly 92.2 µM), for inactives: at the highest dose inhibition of complex formation; active = rising FRET ratio curve, often small or poorly fitted; inconclusive = mostly compound fluorescence or quenching in the first reads; inactive = flat curves in all reads;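 further: potency means the concentration at half of the fitted maximal effect; 0% = DMSO wells and 100% = buffer wells lacking importin beta; nearly all actives have a fitted effect of over 15% in size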
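FRET biosensor Rango (snurportin 1 IBB between N-terminal EYFP and C-terminal Cerulean), 50 nM in PBS/1 mM DTT/0.02% Tween-20/0.1% BSA, preincubated 5 min RT with compound; 0.125 microM importin beta added, 45 min RT, CFP/YFP FRET ratio read.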
GLA inh pH 4.5: inhibitors of human alpha-galactosidase A at pH 4.5. 230,000 tested, under 10 active. purified enzyme, 4-MU-alpha-Gal fluorescence, pH 4.5. P06280. AID 1467. activity change, negative = inhibition, % at 105 µM; inconclusive = small, poorly fitted or top-dose-only inhibition, or a rising curve; inactive = flat fitted curve, though single readings scatter; no compound was filed as active;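 further: 0% = full activity with enzyme and -100% = basal without enzyme; dose as in the result columns while the protocol names 77 µM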
Target sequence (P06280 whole entry, looked up): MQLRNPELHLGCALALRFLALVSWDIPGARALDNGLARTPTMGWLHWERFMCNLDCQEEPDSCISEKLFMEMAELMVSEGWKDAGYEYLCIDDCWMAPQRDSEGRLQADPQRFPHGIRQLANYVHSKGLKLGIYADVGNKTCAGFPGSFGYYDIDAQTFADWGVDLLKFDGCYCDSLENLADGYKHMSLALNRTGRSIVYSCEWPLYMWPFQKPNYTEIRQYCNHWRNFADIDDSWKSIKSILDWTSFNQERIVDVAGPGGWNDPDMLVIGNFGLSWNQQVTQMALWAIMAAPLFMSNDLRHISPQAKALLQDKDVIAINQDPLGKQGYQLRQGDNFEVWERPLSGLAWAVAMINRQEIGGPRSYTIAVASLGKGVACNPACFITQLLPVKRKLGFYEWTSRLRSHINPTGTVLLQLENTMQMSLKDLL
Starred values were filed as active, the others as inactive; ? = inconclusive; . = not tested or not shown; & = joins results of further samples. Only part of the results is shown; rates above refer to the full screens.

SMILES	miR-21 reporter	Rango release inh	Rango-impB inh	GLA inh pH 4.5
CCN(Cc1cccs1)C(=O)CN1C(=O)NC2(CCCc3ccccc32)C1=O (stereo not given)	.	30%	-0.2%	.
Cc1ccc([C@@H]2[C@@H]3C(=O)N(c4ccccc4)C(=O)[C@@H]3[C@]3(C)C(=O)N(Cc4ccccn4)CC(=O)N23)o1	0%	-6%	-0.2%	.
COc1ccc(C(=O)CC2OC(=O)c3c2ccc(OC)c3OC)cc1 (stereo not given)	-1%	-2%	-0.5%	.
Cc1cccc(NC(=S)NNC(=S)NC2CCCCC2)c1C	-9%	-4%	0.7%	3
CC(C)Nc1nc(N(c2ccccc2)c2ccccc2)nc(-n2ccnc2)n1	-5%	-19%	-1.2%	10
Cn1cc(S(=O)(=O)NCc2ccc3c(c2)OCO3)c(C(F)(F)F)n1	0%	1%	-0.1%	.
CC(Oc1ccccc1)C(=O)N1CCC2(CC1)Oc1ccc(F)cc1C(=O)C21CC(c2ccccc2)=NO1 (stereo not given)	.	-9%	2.7%	.
COc1ccc(CN(C)C(=O)CSc2nnc(C3CC3)n2C2CC2)cc1	.	-4%	?	.
O=S(=O)(O)CCN1CCOCC1	-1%	7%	4.7%	-4
Cc1c(C(=O)c2ccc(F)cc2)c2ccccn2c1CCc1ccccn1	-12%	-5%	-2.9%	-5
COc1ccc(OCC(=O)Nc2ccc3c(c2)nc(CCN2CCC(C)CC2)n3C)cc1	-8%	1%	-2.8%	.
Cc1ccnc(Sc2ccc([N+](=O)[O-])cc2[N+](=O)[O-])n1	?	-1%	6.4%	?
O=C(O)c1cc([N+](=O)[O-])ccc1NCc1ccccc1	-2%	5%	-3.1%	-2
COc1ccccc1NS(=O)(=O)c1ccc(C(=O)NCC(c2ccco2)N(C)C)cc1 (stereo not given)	.	1%	2.9%	.
CCOc1ccc(-n2c(SCC(=O)OC)nc3sc4c(c3c2=O)CCN(C)C4)cc1	-3%	1%	-0.2%	.
COC(=O)C1CCN(C(=O)COC(=O)c2cc([N+](=O)[O-])ccc2N2CCOCC2)CC1	.	-1%	-4.4%	.
O=C1NN=C(c2ccccc2)CC1c1ccc(Cl)cc1Cl (stereo not given)	11%	-19%	0.1%	-4
O=C(O)CCCNC(=O)/C(=C\c1ccccc1F)NC(=O)c1ccccc1	-12%	-6%	0.7%	-5
O=C(O)c1cc2c(N3CCC(Cc4ccccc4)CC3)ncnc2s1	-5%	4%	0.8%	1
CCN(CC(=O)Nc1ccc(S(=O)(=O)N2CCCC2)cc1)CC(=O)Nc1cccc(OC)c1	-5%	-4%	?	-2
Cc1ccc(S(=O)(=O)c2c(N)n(CC3CCOC3)c3nc4ccccc4nc23)cc1 (stereo not given)	1%	-19%	0.1%	?
O=C(NC1CCCCCC1)c1ccc(CS(=O)Cc2ccccc2Cl)o1 (stereo not given)	-13%	?	-4.5%	.
COCC(=O)N1CCC(n2nnc3cc(C(F)(F)F)ccc32)CC1	1%	1%	-0.9%	6
O=C(CCC(=O)N1CCSc2ccccc21)NCCc1ccccc1	-4%	-17%	7.8%	.
O=C(COC(=O)c1cccs1)c1ccc2c(c1)OCCO2	-72%	15%	4.0%	5

Continuation.
SMILES	miR-21 reporter	Rango release inh	Rango-impB inh	GLA inh pH 4.5
O=C1CC(N2CCCN(C3CC(=O)N(c4ccc(F)cc4)C3=O)CC2)C(=O)N1c1ccc(F)cc1 (stereo not given)	-2%	-21%	-4.7%	-12
CC(C)C[C@H](NC(=O)c1nc[nH]c1C(=O)N1CCN(c2ccccc2)CC1)C(=O)OCc1ccccc1	1%	-19%	?	-1
Cc1ccc(C(=O)Nc2ccc(C(=O)O)cc2)cc1S(=O)(=O)NCc1ccccc1	-4%	?	?	-1
O=C(N/N=C/c1ccnc2ccccc12)c1ccccc1O	-24%	12%	-5.1%	.
C=C(C)C(=O)OCC(O)COc1ccc(C(C)(C)c2ccc(OCC(O)COC(=O)C(=C)C)cc2)cc1 (stereo not given)	.	2%	0.4%	.
CCOC(=O)c1cc(-c2ccc(C)cc2)n(CCC(=O)N2CCN(c3ccccn3)CC2)c1C	11%	-21%	-4.5%	-6
O=C(CCCC(=O)N1CCc2ccccc21)N1CCc2ccccc21	-1%	7%	2.3%	7
O=C(O)c1coc2ccccc12	-2%	5%	-4.9%	-1
CCOC(=O)CNC(=O)c1c2c(nc3ccccc13)CCCC2	0%	-5%	4.7%	-8
CCCCN(Cc1ccccc1)C(=O)c1cnc2n(c1=O)CCS2	-3%	0%	3.0%	8
S=C1NCN(Cc2cccnc2)CN1	0%	18%	-0.5%	-20
CC(C)CCn1c(N)c(S(=O)(=O)c2cccs2)c2nc3ccccc3nc21	?	-6%	0.0%	?
CCCN(CC(=O)Nc1ccccc1C)C(=O)c1ccc(N2CCCCC2)c([N+](=O)[O-])c1	.	-14%	-0.2%	.
COc1ccc(C)cc1S(=O)(=O)N1CCN(c2cccc(C(F)(F)F)c2)CC1	16%	7%	-1.6%	-18
O=C(c1ccccc1)c1c[nH]c(C(=O)NCc2cccnc2)c1	6%	0%	-0.6%	8
Cc1ccccc1C(=O)N1CCC(C(=O)NC2CCCC2)CC1	2%	-12%	-2.8%	.
CNC(=O)c1c(C)[nH]c(=S)c(C#N)c1-c1ccco1	-1%	?	?	0
O=C(O)COc1cccc(NC(=O)C2CCCO2)c1 (stereo not given)	-4%	2%	1.7%	-2
CN1CCN(NC(=O)COc2cccc(C(F)(F)F)c2)CC1	-7%	15%	0.1%	1
Cc1nn(C2CCS(=O)(=O)C2)c2nc(C3CC3)cc(C(=O)Nc3ccc(C(N)=O)cc3)c12 (stereo not given)	.	27%	-0.5%	.
CNC(=S)Nc1ccc([N+](=O)[O-])cc1C	0%	?	-0.4%	4
COc1ccc(CNC(=O)CN(C)S(=O)(=O)c2ccccc2)cc1	-6%	-19%	4.7%	1
CCOC(=O)C1=C(c2ccccc2)NC(SCC(=O)NC2CCCCC2)=C(C#N)C1c1ccco1 (stereo not given)	4%	0%	-2.0%	-3
COc1cccc(NC(=O)[C@@H]2CCC(=O)N2C2OC(=O)c3ccccc32)c1 (stereo not given in full)	1%	10%	-1.6%	.
Cc1nc2c(nnn2Cc2ccccc2Cl)c(=O)[nH]1	-5%	-14%	1.1%	.

Following part:
SMILES	miR-21 reporter	Rango release inh	Rango-impB inh	GLA inh pH 4.5
CCC(=O)N1CCc2cc(S(=O)(=O)NCCC(=O)NCc3ccccc3Cl)ccc21	-6%&-7%	1%	-1.3%	.
CC(/C=N/NC(=O)c1ccc(Cn2cc([N+](=O)[O-])cn2)o1)=C\c1ccccc1	-39%	-21%	1.0%	.
CCOc1ccc(C(=O)N(CN2CCCC2=O)c2ccc(C)cc2)cc1	-1%	-2%	-2.6%	5
Cn1c(=O)[nH]c(=O)c2c1nc(CN1CCN(c3ccccc3F)CC1)n2CCc1ccccc1	-6%	-1%	2.7%	1
O=C(CN1C2=NCCCN2c2ccccc21)c1ccc(Br)s1	2%	3%	4.6%	-2
COC(=O)c1ccc(N2CCCCC2)c(NS(=O)(=O)c2ccc(C)cc2)c1	14%	0%	-2.5%	-9
O=C(CSc1nc2ccccc2s1)c1cc2ccccc2o1	-21%	-16%	?	9
COC(=O)C(C)Oc1ccc(Cc2ncc(C(F)(F)F)cc2Cl)cc1 (stereo not given)	1%	6%	-0.4%	.
CCN(C(=O)CCN1C(=O)c2ccccc2C1=O)C1CCCCC1	-1%	6%	2.4%	1
CCOc1ccc(C2NC(=O)NC(C)=C2C(=O)OCc2ccccc2)cc1 (stereo not given)	13%	-1%	0.8%	.
Clc1ccc(-c2nnc(-c3ccccc3)c(-c3c[nH]c4ccccc34)n2)cc1	-5%	-4%	-0.2%	3
O=S(=O)(N/N=C/c1ccc(OC2CSC2)cc1)c1ccccc1	-16%	4%	-6.1%	-3
CCCn1c(=O)c2ccccc2n2c(SCC(=O)c3cc(C)n(CCOC)c3C)nnc12	-1%	0%	-0.4%	6
COc1cc(C(=O)OCC(=O)c2c(N)n(C)c(=O)n(C)c2=O)ccc1OCCC(C)C	-1%	-4%	4.2%	0
O=C1c2ccccc2C(Nc2ccc(Cl)cn2)N1Cc1ccccc1 (stereo not given)	9%	3%	-1.3%	-5
CCCCNC(=O)CSc1nc2ccc(C)cc2[nH]1	4%	14%	3.7%	4
CCCCC(=O)NNC(=S)NC(=O)c1ccc(C)cc1	-10%	-1%	-2.8%	8
CCOC(=O)N1N=C(c2ccccc2)CC1(O)C(C)(F)F (stereo not given)	1%	11%	-0.4%	11
CCCn1c(N)cc(=O)n(CCC)c1=O	6%	-8%	-0.8%	8
Cc1ccc(S(=O)(=O)N(C)C)cc1NC(=O)CCNC(=O)c1ccccc1Cl	-8%	1%	0.0%	2
Cn1cccc1Cc1nnc(SCC(=O)Nc2ccccc2F)n1CCc1ccccc1	-8%	9%	13%	4
CCc1ccc(N(CC(=O)NC2CCCCC2)C(=O)CNC(=O)c2ccco2)cc1	0%	1%	3.1%	.
CCS(=O)(=O)Nc1ccc(C2=NN(S(=O)(=O)CC)C(c3cccs3)C2)cc1 (stereo not given)	-13%	-1%	-4.9%	.
Nc1sc(-c2ccccc2)cc1C(=O)O	-37%	.	.	5
CC(C)(C(=O)c1ccccc1)/[N+]([O-])=C/c1ccccc1	.	-6%	0.1%	.

More entries follow:
SMILES	miR-21 reporter	Rango release inh	Rango-impB inh	GLA inh pH 4.5
COc1ccc(C(=O)CN2C(=O)NC3(CCc4ccccc43)C2=O)cc1 (stereo not given)	-7%	-5%	-2.1%	.
Cc1nc(N2CCOCC2)c2c(C)c(C(=O)Nc3ccc(F)cc3F)sc2n1	-9%	-6%	2.8%	-9
O=C(c1ccccc1-c1nc(-c2ccccc2)no1)N1CCOCC1	-23%	13%	0.0%	11
CCOC(=O)Nc1cc(OC)c(OC)cc1Cc1nccc2cc(OC)c(OC)cc12	-8%	2%	-5.3%	-8
CCC(Sc1ccc(Cl)cc1)C(=O)Nc1nnc(-c2cccc([N+](=O)[O-])c2)s1 (stereo not given)	-7%	-1%	0.6%	0
CCOc1ccc(C(C)=O)cc1CN1C(=O)NC(C)(C2CC2)C1=O (stereo not given)	-2%	?	-0.5%	-3
CCC(O)(CCN1CCCCC1)c1ccccc1 (stereo not given)	0%	-13%	2.8%	2
COC(=O)c1ccc(C(c2c(N)n(Cc3ccccc3)c(=O)n(C)c2=O)N2CCOCC2)cc1 (stereo not given)	3%	15%	-1.1%	-12
CN1CCN(CCCNC(=O)c2ccc(Cn3c(=S)[nH]c4ccc(Br)cc4c3=O)cc2)CC1	-4%	9%	1.0%	-2
C=CC1=C(C(=O)O)N2C(=O)C(NC(=O)Cc3ccccc3)C2SC1 (stereo not given)	-3%	-5%	-5.2%	-2
CCCc1n(CC)c2ccccc2[n+]1CC(O)COC1CCCCC1 (stereo not given)	17%	4%	-4.3%	-10
COc1ccccc1NC(=O)c1sc2nc(Cc3ccccc3)cc(C(F)(F)F)c2c1N	0%	?	?	-7
Cc1ccc(C)c(NC(=O)c2c(Cl)nc3ccccn23)c1	-7%	-7%	0.1%	-5
CC(=O)c1sc(NC(=O)c2cc(S(=O)(=O)N3CCOCC3)ccc2F)nc1C	.	-14%	-0.1%	.

Structural class: the compounds so far containing a CF3 group
SMILES	miR-21 reporter	Rango release inh	Rango-impB inh	GLA inh pH 4.5
Cn1cc(S(=O)(=O)NCc2ccc3c(c2)OCO3)c(C(F)(F)F)n1	0%	1%	-0.1%	.
COCC(=O)N1CCC(n2nnc3cc(C(F)(F)F)ccc32)CC1	1%	1%	-0.9%	6
COc1ccc(C)cc1S(=O)(=O)N1CCN(c2cccc(C(F)(F)F)c2)CC1	16%	7%	-1.6%	-18
CN1CCN(NC(=O)COc2cccc(C(F)(F)F)c2)CC1	-7%	15%	0.1%	1
COC(=O)C(C)Oc1ccc(Cc2ncc(C(F)(F)F)cc2Cl)cc1 (stereo not given)	1%	6%	-0.4%	.
COc1ccccc1NC(=O)c1sc2nc(Cc3ccccc3)cc(C(F)(F)F)c2c1N	0%	?	?	-7

Screening results deposited in PubChem BioAssay by National Center for Advancing Translational Sciences (NCATS).
